# Source: PubChem
# AmpC inh no det: Promiscuous and Specific Inhibitors of AmpC Beta-Lactamase (assay without detergent) | AmpC nitrocefin hydrolysis, absorbance 480 nm, no detergent; potencies from a single point are estimates | Potency, µM (highest dose often 28.7 µM), for inactives: at the top dose activity change, negative = inhibition | P00811 | hit rate 1.8% among 71,000; active = falling curve, for most hits resting on a single point; inconclusive = weak or doubtful change; inactive = flat or rising curve; note: % of control where 0% means no effect; about half of the hits show no inhibition at the top dose; a quarter of the inactives give rising signals
# Target sequence (P00811 whole entry, looked up): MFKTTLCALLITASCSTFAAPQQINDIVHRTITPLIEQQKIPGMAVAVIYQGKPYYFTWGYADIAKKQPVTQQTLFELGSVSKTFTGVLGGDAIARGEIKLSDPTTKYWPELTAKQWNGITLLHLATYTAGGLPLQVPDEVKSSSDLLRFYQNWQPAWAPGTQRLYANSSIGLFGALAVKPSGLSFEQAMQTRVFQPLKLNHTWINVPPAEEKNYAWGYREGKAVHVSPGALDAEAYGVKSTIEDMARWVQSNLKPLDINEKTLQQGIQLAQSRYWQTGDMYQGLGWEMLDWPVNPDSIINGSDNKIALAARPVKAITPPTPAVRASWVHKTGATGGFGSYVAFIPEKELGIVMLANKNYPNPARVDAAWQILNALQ
#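 AmpC in 20 mM phosphate buffer pH 7.0 was preincubated 15 min at room temperature with compounds. Nitrocefin (800 uM stock) was then added and hydrolysis followed at 480 nm every 20 s for 4 min.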
# An asterisk follows results filed as active; & = joins results of further samples; [ ] = dose if it differs, or a comment. Potency is the fitted concentration of half-maximal effect.
SMILES,AmpC inh no det
c1ccc2c(CC3=NCCN3)cccc2c1,-8%[12.8 µM]
Nc1cc(-c2ccncc2)c[nH]c1=O,-10%[12.8 µM]
O=C(O)CN1C(=O)c2cccc3cccc(c23)C1=O,4%
CC(C)Cc1ccc([C@H](C)C(=O)O)cc1,-10%[12.8 µM]
O=C1NCC2(CCN(CCc3ccccc3)CC2)O1,-6%[12.8 µM]
COc1nc(C)nc(Cl)c1NC1=NCCN1,-6%[12.8 µM]
CCCOc1ccccc1-c1nc2n[nH]nc2c(=O)[nH]1,0%
CCN(CC)C[C@@H]1CCCCN1CC(=O)N1c2ccccc2C(=O)Nc2cccnc21,27%
O=C(O)COC(=O)Cc1ccccc1Nc1c(Cl)cccc1Cl,3%[12.8 µM]
Nc1nccs1,-8%
Cc1nnc(NS(=O)(=O)c2ccc(N)cc2)s1,1%
O=C1N(c2ccccc2)c2ccccc2C1(Cc1ccncc1)Cc1ccncc1,42%&21%
Cc1c(C(=O)O)c(O)cc2c1C(=O)c1c(O)c([C@H]3O[C@H](CO)[C@@H](O)[C@H](O)[C@H]3O)c(O)c(O)c1C2=O,-8%
CCC1C(=O)OCC1Cc1cncn1C (stereo not drawn),-6%
CCCCCCCCO,-6%

# The final two entries of the part before lead into the next:
SMILES,AmpC inh no det
CCC1C(=O)OCC1Cc1cncn1C (stereo not drawn),-6%
CCCCCCCCO,-6%
N=C(N=C(N)N)N1CCOCC1,-2%
CC(=O)O[C@]1(C(C)=O)CC[C@H]2[C@@H]3C=C(Cl)C4=CC(=O)[C@@H]5C[C@@H]5[C@]4(C)[C@H]3CC[C@@]21C,104%
CN(C)CCCSc1ccccc1NC(=O)/C=C\c1ccccc1,44%
CN(C)CCCN1c2ccccc2Sc2ccccc21,28%[12.8 µM]
NS(=O)(=O)c1cc2c(cc1C(F)(F)F)N[C@H](Cc1ccccc1)NS2(=O)=O,0%[12.8 µM]
CC1=NN(c2ccccc2)C(=O)C1,0%&20%
CN1CCC(=C2c3ccccc3CCc3sccc32)CC1,21%[12.8 µM]
Nc1c2c(nc3ccccc13)CCC[C@H]2O,-8%
COc1ccc(CN(CCN(C)C)c2ccccn2)cc1,8%
CC(=O)[C@@H]1CC[C@@H]2[C@@H]3C[C@H](C)C4=CC(=O)CC[C@@]4(C)[C@H]3[C@H](O)C[C@]21C,74%[12.8 µM]
O=C(Cn1ccnc1[N+](=O)[O-])NCCO,-5%[12.8 µM]

# Looked up by structure from the list above:
SMILES,AmpC inh no det
COc1ccc(CN(CCN(C)C)c2ccccn2)cc1,8%
CC(=O)[C@@H]1CC[C@@H]2[C@@H]3C[C@H](C)C4=CC(=O)CC[C@@]4(C)[C@H]3[C@H](O)C[C@]21C,74%[12.8 µM]
O=C(Cn1ccnc1[N+](=O)[O-])NCCO,-5%[12.8 µM]

# 3 entries out of the list, arranged by molecular weight, high to low.
SMILES,AmpC inh no det
Cc1c(C(=O)O)c(O)cc2c1C(=O)c1c(O)c([C@H]3O[C@H](CO)[C@@H](O)[C@H](O)[C@H]3O)c(O)c(O)c1C2=O,-8%
CC(=O)[C@@H]1CC[C@@H]2[C@@H]3C[C@H](C)C4=CC(=O)CC[C@@]4(C)[C@H]3[C@H](O)C[C@]21C,74%[12.8 µM]
Nc1c2c(nc3ccccc13)CCC[C@H]2O,-8%

# Of the compounds above, these have a halogen:
SMILES,AmpC inh no det
COc1nc(C)nc(Cl)c1NC1=NCCN1,-6%[12.8 µM]
O=C(O)COC(=O)Cc1ccccc1Nc1c(Cl)cccc1Cl,3%[12.8 µM]
CC(=O)O[C@]1(C(C)=O)CC[C@H]2[C@@H]3C=C(Cl)C4=CC(=O)[C@@H]5C[C@@H]5[C@]4(C)[C@H]3CC[C@@]21C,104%
NS(=O)(=O)c1cc2c(cc1C(F)(F)F)N[C@H](Cc1ccccc1)NS2(=O)=O,0%[12.8 µM]

# Not all compounds are listed; the hit share may differ from the screen's.
